# Six1-Eya2 inh: inhibitors of human Six1/Eya2 interaction; Q15475+O00167; AlphaScreen GST-Six1/His-Eya2 binding, biochemical; hits give low values; control for the full effect not named in the record; activity change, % (test concentration not listed); 360,000 compounds, 0.56% hits; AID 651725; in the data active = activity change below about -65%; inconclusive = about -30% to -65%; inactive = above about -30%; further: on the % scale 0 is the no-effect control and ±100 the full control effect
#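 AlphaScreen with GST-Six1 and His-Eya2 (5X mix: 250 nM and 500 nM), glutathione donor and nickel acceptor beads; buffer 50 mM Tris pH 8.0, 300 mM NaCl, 1 mM TCEP; 1 h at 37 C in the dark.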
# TRPML1 agonist: agonists of human TRPML1 channel; 410,000 compounds, 0.12% hits; activation, % (test concentration not listed); TRPML1-expressing cells, Ca2+ dye fluorescence, FDSS; host cell line not named in the record; reference of the full effect not given here; Q9GZU1; in the data active = activation above about 50%; inconclusive = about 30% to 50%; inactive = below about 30%; further: 0% is about no effect; the text of the record puts the active cut at 80%
#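 Calcium fluorescence on an FDSS kinetic reader gave the read-out. Tet-induced TRPML1-DL cells were plated overnight, dye-loaded (Ca8 with quencher, 45-90 min, room temperature, dark), then read 110 s after compound addition, and again 110 s after 4uM final 54-4 (EC80).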
# D2 PAM: positive allosteric modulators of human D2 dopamine receptor | P14416 | DiscoveRx D2 beta-arrestin cells, luminescence, 90 min; 100% = 57 uM dopamine signal | potentiation, % (test concentration not listed) | 360,000 compounds, 0.23% hits | AID 624464; active = potentiation of 50% or more; inconclusive = 30% to 50%; inactive = 30% or less;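 further: compound concentration not given in the record; tested on top of an EC20 dose of dopamine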
#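 D2 cells co-treated with compound plus 50 nM dopamine (EC20) for 90 min at 37 deg C to detect potentiation. Beta-arrestin recruitment was read as enzyme-fragment luminescence after 1 h at ambient temperature. Full response was set by 57 uM dopamine.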
# CtBP-E1A inh: CtBP/E1A binding inhibition | AlphaScreen GST-E1A/His-CtBP binding, 1536-well; hits give low values; control for the full effect not named in the record | activity change, % (no concentration beside the values) | 340,000 compounds, 0.49% hits; in the data active means activity change below about -65%; inconclusive means about -30% to -65%; inactive means above about -30%; further: on the % scale 0 is the no-effect control and ±100 the full control effect
#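 Protein mix (5X: 125 nM each GST-E1A, His-CtBP) was incubated with pinned compound 2 h at 37 deg C in dark, in 50 mM Tris pH 8.0 buffer with 300 mM NaCl. Glutathione donor and nickel acceptor beads followed; AlphaScreen signal read after 1 h.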
# TRPML1 inh: blocks the human TRPML1 channel. activity change, negative = inhibition, % (test concentration not listed). TRPML1-inducible cells, Ca2+ dye fluorescence, FDSS; hits give low values; inhibition of EC80 agonist-evoked calcium signal. 390,000 compounds, 0.02% hits. Q9GZU1; in the data active means activity change below about -50%; inconclusive means about -30% to -50%; inactive means above about -30%;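 further: stimulus is agonist 54-4 at its EC80 concentration; on the % scale 0 is the no-effect control and ±100 the full control effect; compound concentration not given in the record; the text of the record puts the active cut at -80%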
#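 Calcium fluorescence in TRPML1-DL cells induced overnight with Tet: a 110 s read after compound pin addition, then a 110 s antagonist read after challenge with 54-4 at 4 uM final (EC80).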
# TRPV1 PAM: potentiators of human vanilloid receptor 1 (TRPV1); TRPV1-expressing cells, Fluo-8 calcium influx, capsaicin EC20 potentiation; host cell line not named in the record; control for the full effect not named in the record; potentiation, % at 8.33 µM; 320,000 compounds, 0.02% hits; active means potentiation above 80%; inconclusive means 30% to 80%; inactive means below 30%; further: 0% is about no effect
# Target sequence (Q8NER1 whole entry, looked up): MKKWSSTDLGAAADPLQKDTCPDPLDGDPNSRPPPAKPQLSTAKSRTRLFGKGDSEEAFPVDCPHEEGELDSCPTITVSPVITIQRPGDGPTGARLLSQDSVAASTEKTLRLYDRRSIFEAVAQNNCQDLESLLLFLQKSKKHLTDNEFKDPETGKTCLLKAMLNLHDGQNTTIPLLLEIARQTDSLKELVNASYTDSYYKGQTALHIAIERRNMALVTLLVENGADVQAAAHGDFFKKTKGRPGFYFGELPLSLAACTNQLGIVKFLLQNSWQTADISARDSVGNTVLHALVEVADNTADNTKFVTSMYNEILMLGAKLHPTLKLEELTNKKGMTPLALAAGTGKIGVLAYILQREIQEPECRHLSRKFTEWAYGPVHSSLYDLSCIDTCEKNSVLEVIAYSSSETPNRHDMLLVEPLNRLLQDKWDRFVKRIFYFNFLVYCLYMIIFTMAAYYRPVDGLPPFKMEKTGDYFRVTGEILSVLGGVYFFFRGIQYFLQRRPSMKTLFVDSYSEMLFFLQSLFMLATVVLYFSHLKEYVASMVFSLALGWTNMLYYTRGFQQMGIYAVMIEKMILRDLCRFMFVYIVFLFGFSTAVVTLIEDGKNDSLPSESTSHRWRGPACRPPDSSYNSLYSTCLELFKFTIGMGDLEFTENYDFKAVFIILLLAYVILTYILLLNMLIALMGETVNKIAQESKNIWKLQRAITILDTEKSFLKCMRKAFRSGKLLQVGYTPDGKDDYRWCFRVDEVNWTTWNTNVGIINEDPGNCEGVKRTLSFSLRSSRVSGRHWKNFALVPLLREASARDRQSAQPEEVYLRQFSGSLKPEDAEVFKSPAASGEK
#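 Fluo-8 calcium influx in TRPV1-expressing cells, kinetic read (ex 480/em 520 nm). Compound added and read 3 min for agonist activity, followed by capsaicin at EC20 final and 2 min further read for enhancement.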
# * hit, by the source's call; ? = inconclusive; / = not tested or not shown.
SMILES,Six1-Eya2 inh,TRPML1 agonist,D2 PAM,CtBP-E1A inh,TRPML1 inh,TRPV1 PAM
CCOC(=O)C(C)Sc1nnc2c3ccccc3n(C)c2n1 (stereo not drawn),-10,1.0,1,-14,-8,0
CCOC(=O)C1CCCN(C(=O)c2ccc(S(=O)(=O)N3CCOCC3)cc2)C1 (stereo not drawn),1,1.4,-2,-1,-16,2
O=C(COC(=O)c1ccccc1OCc1ccccc1Cl)NC1CCS(=O)(=O)C1 (stereo not drawn),6,0.3,-4,4,-5,/
COc1ccc(S(=O)(=O)N2CCN(C(c3ccccc3)c3ccccc3)CC2)cc1NC(C)=O,-7,0.3,-7,3,51,7
COc1ccc(NC(C)C(=O)N/N=C/c2cc(Br)ccc2OC)cc1 (stereo not drawn),-13,1.0,-12,-14,-17,-8
CCCc1noc2c1/C(=N\O)CCC2,0,0.8,-13,5,2,1
CCOC(=O)c1c(C)n(C)c2ccc(O)c(CN3CCN(C)CC3)c12,-2,0.8,-11,0,-2,-3
CCC(C)(C)C1CCc2nc3ccccc3c(C(=O)OC(C)C(=O)Nc3c(C)n(C)n(-c4ccccc4)c3=O)c2C1 (stereo not drawn),3,-0.6,4,4,-10,6
CN(C)c1nc(=NCc2cccs2)ss1,-4,0.7,-53,3,-9,/
COc1ccccc1C(C#N)N1N=C(C)CC1(C)C (stereo not drawn),10,0.7,-1,2,-6,7
COc1ccc(/C=C/C(=O)O/N=C(\N)c2cccnc2)cc1OC,-3,-0.9,16,-1,-5,2
CN(C)/C=C/c1c(C#N)c(=O)ncn1Cc1ccccc1,3,-0.3,-18,6,-12,0
C[C@H]1CN=C(N(C)C)N1CCc1ccc(F)cc1,-4,0.2,-17,10,-4,-6
CC(=O)/C=C/n1c(=S)oc2ccccc21,-3,2.0,-11,0,-26,4
CCC(=O)N1CCc2cc(Br)cc(S(=O)(=O)NCCN3CCCCC3CC)c21 (stereo not drawn),-3,0.0,-18,-3,16,-9
COC(=O)C1=C(C)Nc2c(c(=O)n(C)c(=O)n2C)C1c1cccs1 (stereo not drawn),-5,-1.4,-5,0,2,1
CC1SCC(NC(=O)c2cccc(Cl)c2)CS1 (stereo not drawn),0,0.3,-10,-3,-1,-21
O=C(CSc1nnc(-c2ccccc2O)o1)N1CCOCC1,3,-0.1,0,-5,39,-24
Cc1ccc(SCCC(=O)OCn2nnc3ccccc3c2=O)cc1,-3,1.5,-19,15,12,-18
O=C(NN1C(=O)C2C(C1=O)C1C=CC2C12CC2)c1ccccc1 (stereo not drawn),-6,0.3,1,-12,1,0
Cc1c(NC(=O)c2c(F)c(F)c(F)c(F)c2F)c(=O)n(-c2ccccc2)n1C,6,0.3,-8,8,-12,1
O=C(NCCC1CCCCN1S(=O)(=O)c1ccccc1)C(=O)NCc1ccccn1 (stereo not drawn),1,1.2,-21,2,12,7
O=C(COC(=O)c1cc(=O)[nH]c(=O)[nH]1)Nc1ccccc1F,7,1.1,11,3,-3,/
Cc1cc(NC(=O)Cn2nc([N+](=O)[O-])c(Br)c2C)no1,-9,-0.9,-9,-3,-7,4
Cc1cc(NC(=O)CCC(=O)N(CC(=O)NCC2CCCO2)c2ccc(F)c(Cl)c2)no1 (stereo not drawn),-3,0.3,-10,-20,0,-18
# (more compounds)
SMILES,Six1-Eya2 inh,TRPML1 agonist,D2 PAM,CtBP-E1A inh,TRPML1 inh,TRPV1 PAM
COc1cc(/C=N/NC(N)=S)ccc1OCc1ccc(C)cc1,-22,2.2,-15,-5,22,-3
CCOn1c(=O)c(=O)n(O)c2ccccc21,-4,1.3,-7,-2,-1,3
Cc1ccc(CNC(=O)CCNS(=O)(=O)c2ccc3c(c2)c(=O)n(C)c(=O)n3C)cc1,-9,0.3,4,-16,-7,3
COC(=O)Cc1cc(=O)n2[nH]c(C(F)(F)F)nc2n1,-1,0.0,-8,5,-2,12
COc1ccccc1C1=NC(c2ccc(C)cc2)N=C1C (stereo not drawn),-3,1.7,-14,/,16,-13
CCN(CC(=O)Nc1ccc(OC)cc1)C(=O)c1ccc([N+](=O)[O-])cc1,13,1.7,0,8,-7,3
Cc1cccc(C(=O)NC2CCN(C(=O)N3CCOCC3)CC2)c1,1,0.8,-5,-2,23,-8
COc1ccccc1Nc1nc(-c2sc(NC(=O)c3ccco3)nc2C)cs1,-17,-0.6,-29,-11,-2,-3
CCn1c(C)nnc1SCC(=O)Nc1ccc(OC)cc1,3,-1.0,-3,-1,-7,/
CC(=O)N(c1ccccc1)C(C)c1nc(C#N)c(C#N)nc1C (stereo not drawn),10,1.3,-6,2,-3,8
CCCOc1ccc(/C=C2\SC(N)=NC2=O)cc1OC,-27,2.1,-5,/,-5,-15
Cc1ccccc1/C=C/c1nc2ccccc2c(=O)n1Cc1ccccc1,6,-0.5,-4,3,-13,17
O=C(CCCc1ccccc1)Nc1ccnn1C1CCN(Cc2ccc(CO)o2)CC1,10,0.2,-6,-8,-5,9
COc1cccc(CN(C)CC(=O)Nc2cccc(S(N)(=O)=O)c2)c1OC,1,0.2,-6,6,-3,-4
CC(=O)c1c(C(C)=O)c(C)n(NC(=O)c2cccnc2)c1C,-4,0.3,-2,-12,-1,0
CC(C)N1C2OC(C3OC4C(O3)N(C(C)C)S(=O)(=O)N4C(C)C)OC2N(C(C)C)S1(=O)=O (stereo not drawn),5,0.2,3,0,12,-3
CC1Cc2ccccc2N1C(=O)COc1ccc2c(c1)OCO2 (stereo not drawn),-11,0.6,-2,-13,-1,-13
O=C(NNC(=O)c1ccc([N+](=O)[O-])cc1)c1ccc(Br)cc1,-18,-1.3,-5,-4,7,4
Cc1cccc(C(=O)NNC(=O)/C=C/C(=O)O)c1,0,0.9,-5,/,3,-16
CC(=O)N1CCC(C(=O)N2CCN(S(=O)(=O)c3ccc(Cl)s3)CC2)CC1,0,0.1,-19,22,-7,/
COc1cccc(NC(=O)CN2C(=O)CSc3ccc(S(=O)(=O)N4CCC(C)CC4)cc32)c1,-6,2.5,-3,-2,-4,0
Cc1ccc(C)c(S(=O)(=O)N2CCN(C(=O)CCc3c[nH]c4ccccc34)CC2)c1,-2,-0.7,-1,3,-1,-8
CCCCNC(=O)C1CCN(S(=O)(=O)c2c(C)noc2/C=C\c2ccc(OC)cc2)CC1,-2,0.1,-5,-10,-4,/
CCN(CC)c1ccc2cc(C(=O)NNC(=O)c3ccc(S(=O)(=O)N4CCCCC4)cc3)c(=O)oc2c1,15,4.8,-4,24,-23,-5
CCOc1ccc(OCC)c(N=c2oc3c(C)ncc(CO)c3cc2C(N)=O)c1,5,0.3,-14,-2,-10,11

# Among those listed so far, these contain a Cl atom.
SMILES,Six1-Eya2 inh,TRPML1 agonist,D2 PAM,CtBP-E1A inh,TRPML1 inh,TRPV1 PAM
O=C(COC(=O)c1ccccc1OCc1ccccc1Cl)NC1CCS(=O)(=O)C1 (stereo not drawn),6,0.3,-4,4,-5,/
CC1SCC(NC(=O)c2cccc(Cl)c2)CS1 (stereo not drawn),0,0.3,-10,-3,-1,-21
Cc1cc(NC(=O)CCC(=O)N(CC(=O)NCC2CCCO2)c2ccc(F)c(Cl)c2)no1 (stereo not drawn),-3,0.3,-10,-20,0,-18
CC(=O)N1CCC(C(=O)N2CCN(S(=O)(=O)c3ccc(Cl)s3)CC2)CC1,0,0.1,-19,22,-7,/

# Sorted by number of heavy atoms (highest first): some entries from above.
SMILES,Six1-Eya2 inh,TRPML1 agonist,D2 PAM,CtBP-E1A inh,TRPML1 inh,TRPV1 PAM
COc1ccc(S(=O)(=O)N2CCN(C(c3ccccc3)c3ccccc3)CC2)cc1NC(C)=O,-7,0.3,-7,3,51,7
COc1cccc(NC(=O)CN2C(=O)CSc3ccc(S(=O)(=O)N4CCC(C)CC4)cc32)c1,-6,2.5,-3,-2,-4,0
CCC(=O)N1CCc2cc(Br)cc(S(=O)(=O)NCCN3CCCCC3CC)c21 (stereo not drawn),-3,0.0,-18,-3,16,-9
COc1ccccc1C(C#N)N1N=C(C)CC1(C)C (stereo not drawn),10,0.7,-1,2,-6,7

# More structures follow.
SMILES,Six1-Eya2 inh,TRPML1 agonist,D2 PAM,CtBP-E1A inh,TRPML1 inh,TRPV1 PAM
COC(=O)C1=C(C)N(CCCC(=O)O)C(=O)NC1c1ccc(Br)cc1 (stereo not drawn),4,0.0,-4,6,-19,9
Cc1ccc(C)c(S(=O)(=O)N2CCCCC2CCNC(=O)C(=O)NCCc2ccco2)c1 (stereo not drawn),-7,3.1,-3,-1,14,-5
O=C(O)c1ccc(N/N=C/C2=C(N3CCOCC3)C(=C\c3ccccc3)/CC2)cc1,-5,6.6,51*,2,2,-9
Nc1nc(NCCO)nc(NC2CCCCC2)c1[N+](=O)[O-],-2,1.9,-8,-12,19,21
Cc1nc2sc(C)c(C)c2c(=O)[nH]1,2,-0.2,-3,-7,-13,20
CC(=O)Nc1cccc(NC(=O)Nc2ccc(C)c(Cl)c2)c1,5,-0.7,-1,1,3,-15
Cc1cccc(Nc2ccccc2)c1,-5,-0.2,-8,6,3,0
Cc1ccc(N2C(=O)CSCC2=O)cc1,3,-0.1,16,25,-3,-1
CCc1nc2ccccc2c(C(=O)OCC(=O)Nc2cccc(S(=O)(=O)N3CCOCC3)c2)c1C,?,3.0,2,?,31,8
NC(=O)C1CCCN(C(=O)c2ccc3oc(Cc4ccc(Cl)cc4)nc3c2)C1 (stereo not drawn),1,0.0,-10,-13,-2,1
CC[C@@H](C)[C@@H]1CN([C@@H](CN2CCC[C@H]2CN2C(N)=NC[C@H]2C(C)C)C(C)C)C(=N)N1CCc1ccc(Cl)c(Cl)c1,1,-0.4,/,-26,-16,/
CC(=O)c1cnc2c(-c3ccccc3)c(-c3ccccc3)nn2c1C,20,0.7,-22,/,12,7
CC(=O)Nc1cn(-c2ccccc2)nc1-c1ccccc1,8,-0.1,-5,-1,-2,-16
Nn1cc(-c2ccccc2)nc1SCC(=O)NC1CCS(=O)(=O)C1 (stereo not drawn),5,-0.4,-4,2,10,-7
CCOC(=O)N1CCN(S(=O)(=O)c2ccc(C(=O)N(CCCN(C)C)c3nc4ccc(Cl)cc4s3)cc2)CC1,1,0.6,-13,-11,-4,2
COC(=O)c1cc(NS(=O)(=O)c2cccs2)cc(NS(=O)(=O)c2cccs2)c1,10,0.5,-16,-5,-3,6
COc1ccccc1-c1nnc2n1N=C(C(C)(C)C)CS2,-1,-0.7,-12,1,-5,7
COC(=O)Cn1c(C)c(C#N)c2ccccc21,1,1.0,-5,4,0,-4
CC(C)NC(=S)N/N=C/c1cc(Br)ccc1O,-82*,1.5,25,-89*,8,10
CC1CCCCC1NC(=O)COC(=O)c1ccccn1 (stereo not drawn),17,-0.9,-5,0,10,3
CN(CCc1ccccc1)C(C(=O)Nc1ccc2c(c1)OCCO2)c1ccnc2ccccc12 (stereo not drawn),-14,-0.6,-5,-11,/,/
CC1SC(c2ccc(F)cc2)NC1=O (stereo not drawn),6,-0.1,-5,3,-8,-5
COc1ccc(C2C(C(=O)OCC(=O)Nc3ccc(C)cc3)CCC(=O)N2c2ccc(OC)cc2)cc1 (stereo not drawn),-4,0.1,-9,4,33,29
Cc1nn(C)cc1S(=O)(=O)N1CCN(c2ccccc2F)CC1,8,0.2,-15,7,-10,0
CS(=O)(=O)N(CC(=O)NCc1ccc2c(c1)OCO2)c1ccc(Cl)cc1,-2,0.9,-4,1,50,-2

# Source: PubChem (National Center for Advancing Translational Sciences (NCATS))
